Source: PubChem BioAssay
HNF4A DNA FP – change in binding of human HNF4A to DNA, primary screen, biochemical, fluorescence polarization, FITC-DNA; Hepatocyte nuclear factor 4-alpha (Homo sapiens), P41235; 1 h; activity change, % at 10 µM; 360,000 tested, 0.3% active; AID 1224865, 2016; in the data active = activity change above about 30%, passing the limit was not always enough;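 also: controls were the assay level and a saturating level of protein; the project sought stronger binding though the title names inhibitors; some compounds called inactive have numbers as strong as hits; positive values seem to mean higher polarization but the record does not say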
Target sequence (P41235 whole entry, looked up): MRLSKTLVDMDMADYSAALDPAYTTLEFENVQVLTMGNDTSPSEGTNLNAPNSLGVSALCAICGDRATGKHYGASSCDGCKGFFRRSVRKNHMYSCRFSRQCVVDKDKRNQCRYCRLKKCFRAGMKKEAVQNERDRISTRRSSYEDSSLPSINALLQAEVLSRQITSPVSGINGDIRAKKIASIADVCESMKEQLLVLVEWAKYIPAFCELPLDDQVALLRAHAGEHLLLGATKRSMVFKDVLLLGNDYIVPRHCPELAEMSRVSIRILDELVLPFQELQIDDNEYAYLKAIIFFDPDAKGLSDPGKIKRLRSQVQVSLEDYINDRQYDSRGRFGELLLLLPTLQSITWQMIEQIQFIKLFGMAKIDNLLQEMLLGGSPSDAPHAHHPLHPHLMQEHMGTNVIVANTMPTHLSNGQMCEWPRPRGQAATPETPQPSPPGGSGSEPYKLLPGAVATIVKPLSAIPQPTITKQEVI
ALR inh – inhibitors of human ALR sulfhydryl oxidase, primary screen, biochemical, H2O2 detection, HRP-luminol luminescence, single point | purified ALR, DTT oxidation | AID 485317, 2010 | inhibition, % (concentration not given with the values) | 290,000 tested, 3.8% active;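 active = mean and each replicate at 75% or more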;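 also: stock transfer was 7.5 nL into about 7.5 µL; 0% = neutral wells and 100% = wells with inactivated enzyme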
Target sequence (P55789 whole entry, looked up): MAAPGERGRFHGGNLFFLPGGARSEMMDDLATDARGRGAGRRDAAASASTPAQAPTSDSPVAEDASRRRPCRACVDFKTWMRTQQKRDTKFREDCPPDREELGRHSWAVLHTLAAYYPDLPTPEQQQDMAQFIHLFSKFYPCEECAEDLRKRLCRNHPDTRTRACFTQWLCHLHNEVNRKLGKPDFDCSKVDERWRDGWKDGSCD
FGF22 binding – binders of human FGF22 protein, primary screen, FGF22 synaptogenesis inhibitor project, biophysical, thermal shift, single point | recombinant FGF22 thermal shift, SYPRO orange fluorescence; percent of sucrose octasulfate shift, DMSO zero | calls only at 9.99 µM | 340,000 tested, 1.5% active | AID 651658, 2012;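 active = melting point raised past a set limit in the mean and every replicate; three in four hits are not shown here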
UCH37 inh – inhibitors of human UCH37 deubiquitinase, primary screen, biochemical, Ub-AMC cleavage, fluorescence; purified proteasome/UCH37; inhibition, % (concentration not given with the values); 330,000 tested, 0.33% active; AID 588478, 2011;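 active = mean of two replicates above 20%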;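 also: 0% = compound-free wells with enzyme and 100% = wells lacking proteasome; stock transfer was 100 nL into about 20 µL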
Target sequence (Q9Y5K5 whole entry, looked up): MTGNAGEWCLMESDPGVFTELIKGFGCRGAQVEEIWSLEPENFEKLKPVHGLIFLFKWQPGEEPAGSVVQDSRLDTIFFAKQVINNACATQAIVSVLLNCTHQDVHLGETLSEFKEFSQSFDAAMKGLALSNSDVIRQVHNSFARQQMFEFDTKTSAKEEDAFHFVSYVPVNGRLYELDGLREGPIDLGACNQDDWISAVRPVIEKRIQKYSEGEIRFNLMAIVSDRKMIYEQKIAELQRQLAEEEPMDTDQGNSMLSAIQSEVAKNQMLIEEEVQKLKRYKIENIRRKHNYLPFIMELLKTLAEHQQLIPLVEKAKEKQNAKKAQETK
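system = Proteasome-associated human UCH37 deubiquitinase | amount = 0.15 nM proteasome as dispensed | medium = pH 7.4 Tris-HCl (50 mM) with ovalbumin, ATP-MgCl2, DTT | incubation = 30 min preincubation with enzyme, 25 min cleavage at room temperature | detection = AMC fluorescence 355/460 nm | read-out basis = percent inhibition | controls = no-proteasome and no-compound wells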
rRNA inh HTS – reduced GFP signal of wild-type E. coli, primary screen, bacterial rRNA inhibitor project, GFP/RFP fluorescence, OD600, single point. 350,000 tested, 1.6% active. GFP signal change (wild-type ribosome), % (no concentration beside the values). E. coli WT GFP vs humanized-ribosome RFP mutants, 24 h; active compounds read low; DMSO median 0, no signal -100;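 active = significant combined selectivity score with lowered wild-type GFP, culture density cut under 30%, mutant RFP and density less affected; inactive = any of these conditions unmet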; also: one replicate is shown; some compounds called inactive have numbers as strong as hits
Ecoli growth – E. coli growth inhibition, primary screen, OD600; Escherichia coli growth, 23 h; active compounds read low; OD600 absorbance (concentration not given with the values); 330,000 tested, 0.21% active;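 active = OD600 absorbance below the run mean of sample wells minus 3.6 SD, in any replicate, cut at about 0.56 in these data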;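 also: stock transfer was 300 nL into about 60 µL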
B2AR ag – beta2AR agonists driving receptor internalization, primary screen, cell-based, FAP fluorogen, flow cytometry | AID 504454, 2011 | 340,000 tested, 0.43% active | Am2.2-beta2AR cells; reference of the scale not given here | response, % (test concentration not listed) | Beta-2 adrenergic receptor (Homo sapiens), P07550;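 active = response above a set limit, near 3 SD of response in nonfluorescent compounds, cut at about 42% in these data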;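 also: stock transfer was 100 nL into about 11 µL; a reference agonist was the positive control; negative values mostly stem from fluorescent compounds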
rRNA inh HTS OD600 – also measured in rRNA inh HTS; calls as there; OD600 change, %; measured here: OD600 growth;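 optical density of the mix in the first replicate; 0 = DMSO median and -100 = no signal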
rRNA inh HTS RFP – further read-out of rRNA inh HTS, marked with its call; RFP signal change, %; measured here: RFP humanized mutant strains;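 first replicate; 0 = DMSO median and -100 = no signal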
An asterisk follows results filed as active; i = inactive; nt = no result given. An excerpt; count on the stated rates, not on these rows.

SMILES	HNF4A DNA FP	ALR inh	FGF22 binding	UCH37 inh	rRNA inh HTS	rRNA inh HTS OD600	rRNA inh HTS RFP	Ecoli growth	B2AR ag
CC1(C)OC(=O)C(=CNCC(O)c2ccccc2)C(=O)O1 (configuration not stated)	1.6	-2	nt	0.6	nt	nt	nt	0.66	2
COc1ccc(C)cc1N/C(N)=N/c1nc(C)cc(C)n1	-1.2	-10	i	5.6	2	5	1.6	0.71	-11
O=C(/C=C/c1ccc(Br)cc1)c1ccc(NC(=O)c2ccco2)cc1	4.1	3	nt	7.9	nt	nt	nt	0.69	-9
COc1ccc(COn2nnc3ccc(S(=O)(=O)N4CCOCC4)cc32)cc1F	-1.7	1	nt	5.0	-2	-2	1.7	0.7	8
CCC(C(=O)NCCN1CCOCC1)n1c2ccccc2c2nc(=O)cc(C)n21 (configuration not stated)	-1.3	-5	i	0.1	0	0	-2.0	0.66	5
COCCNC(=O)c1c(N)n(/N=C/c2ccc(F)cc2)c2nc3ccccc3nc12	-0.1	-3	i	nt	18	18	0.4	nt	10
COc1ccc2c(c1OC)C(=O)N1c3ccccc3N=C(c3ccc([N+](=O)[O-])cc3)CC21 (configuration not stated)	3.4	97*	i	7.3	8	7	-0.3	0.67	3
CC(C(=O)O)n1c(C(F)(F)F)nc2ccccc21 (configuration not stated)	-0.3	-26	nt	3.4	nt	nt	nt	0.68	-3
Nc1ccc2nc3c(=O)n(C4CCCCC4)c(=O)[nH]c3nc2c1	-103	nt	i	13	66	3	-5.9	0.71	-41
CC(=O)N1CCN(C(=O)C(Cc2c[nH]c3ccccc23)NC(=O)c2ccccc2Cl)CC1 (configuration not stated)	2.6	-17	i	1.9	2	3	2.9	0.68	2
COc1ccc(C)cc1S(=O)(=O)N(C)CC(=O)N1CCN(C)CC1	2.1	-11	nt	4.7	nt	nt	nt	0.7	-1
CCOP(=O)(OCC)C(C#N)=C1SCN(c2ccc(Cl)cc2)CS1	1.7	-2	nt	12	nt	nt	nt	0.69	-2
CCc1ccc(C2CC3C(CN2S(=O)(=O)c2ccc(C)cc2)[C@@H](O)C[C@@H](c2ccc(CC)cc2)N3S(=O)(=O)c2ccc(C)cc2)cc1 (some centres not stated)	-2.0	nt	i	nt	-1	-23	-5.3	nt	nt
C[n+]1cc(-c2ccccc2)n2c1CCCCC2	-1.4	-5	nt	2.5	nt	nt	nt	0.72	-1
CCOC(=O)c1ccc(-n2c(C)nc3c(cnn3-c3ccccc3C)c2=O)cc1	-2.1	-4	i	5.0	-6	-11	-0.4	0.71	0
Cc1nn2c(C)nc3sc4c(c3c2nc1=O)CC(C)(C)OC4	1.6	8	nt	-22	nt	nt	nt	0.67	-9
C[C@H](CO)N1C[C@H](C)[C@@H](CN(C)C(=O)Nc2ccc3c(c2)OCO3)Oc2ccc(NS(=O)(=O)c3ccccc3)cc2C1=O	-2.1	-6	i	4.6	-3	1	-11	nt	-3
COc1cccc(/C=N/NC(=O)COc2cccc3cccnc23)c1O	0.8	21	i	nt	7	9	0.4	nt	-1
COc1cccc(CNC(=O)C(=O)NCC2OCCCN2S(=O)(=O)c2cc(C)ccc2C)c1 (configuration not stated)	3.5	11	i	-1.7	-16	-15	0.2	0.72	-7
CC1CC(=O)Nc2ccccc2N1C(=O)COc1ccc2cc(Br)ccc2c1 (configuration not stated)	4.0	12	i	0.9	-6	8	-6.8	0.59	21
CCN(C(=O)COC(=O)c1ccc(N2C(=O)c3ccccc3C2=O)cc1)C1CCS(=O)(=O)C1 (configuration not stated)	-1.4	2	i	0.9	4	9	0.9	0.68	1
O=C(NCC1COc2ccccc2O1)c1ccccc1 (configuration not stated)	-1.5	-28	nt	2.6	nt	nt	nt	0.68	0
CCS(=O)(=O)c1nc(S(=O)(=O)c2ccc(C)cc2)c(N2CCN(C)CC2)s1	3.4	-3	i	4.2	14	14	1.6	0.71	1
CC(NC(=O)C1CSC2(C)CCC(=O)N12)c1ccccc1Cl (configuration not stated)	-1.2	-5	i	-1.5	-1	2	-2.0	0.63	-2
O=C(O)c1ccc(Cl)c(NCc2cccnc2)c1	-0.3	-7	i	nt	5	6	-0.4	nt	-1
CC/C(=N/N=C(/CC)c1ccc(O)cc1)c1ccc(O)cc1	1.5	46	i	nt	14	4	0.9	nt	23
O=C(O)c1cccc(S(=O)(=O)N2CCSCC2)c1	0.1	nt	nt	0.6	nt	nt	nt	0.69	19
COc1cccc(-n2cc(CN(C)C(=O)C3CCC(=O)N(C4CC4)C3)cn2)c1 (configuration not stated)	-0.9	nt	i	nt	11	11	5.7	nt	nt
COC(=O)C[C@H]1N(S(=O)(=O)c2ccc(C)cc2)C(C(C)C)CC1(C(=O)OC)C(=O)OC (some centres not stated)	-0.3	nt	i	nt	-12	-12	-2.2	nt	nt
COc1cc(C(=O)Nc2ccc(S(=O)(=O)Nc3ncccn3)cc2)c([N+](=O)[O-])cc1OC	-5.0	-8	i	7.1	7	7	2.1	0.66	0
Cc1ccc2sc(N3CCN(C(=O)c4ccc([N+](=O)[O-])o4)CC3)nc2c1C	2.7	-25	nt	2.0	-4	-2	-1.1	0.67	3
O=S(=O)(O)c1ccc(N=Nc2ccccc2)cc1	1.5	-5	i	15	-49	-77	-20	0.69	2
Cc1csc(NC(=O)CCCSc2nc3ccccc3s2)n1	-1.3	-4	nt	2.5	nt	nt	nt	0.67	-16
Cc1ccc2c(c1)C1(OCCO1)C(=O)N2	0.2	nt	nt	-0.4	nt	nt	nt	0.7	0
Cc1ccc(OCC(=O)Nc2ccc(S(=O)(=O)N3CCOCC3)cc2)c(C)c1	-5.9	nt	i	0.5	-5	2	-4.9	0.7	2
COCCNC(=O)Cn1cc(/C=C(\C#N)C(=O)NC2CCCC2)c2ccccc21	-1.0	13	i	-109	11	11	0.1	0.71	-11
CC(C)C(=O)Nc1cccc(NC(=S)NC(=O)C(c2ccccc2)c2ccccc2)c1	-8.1	-13	nt	2.9	nt	nt	nt	0.7	-10
O=c1[nH]ncc(N/N=C\c2ccncc2)c1Cl	1.0	25	i	nt	4	-3	-0.6	nt	0
O=c1cn[nH]c2ccc(Br)cc12	-1.2	nt	i	nt	-2	10	26	nt	-5
COCCn1nnnc1SCC(=O)Nc1ccc2c(c1)OCO2	-1.0	-18	i	0.1	14	6	-2.9	0.69	2
CC(C)OCCCNC(=O)c1cccc(NC(=O)c2ccccc2)c1	5.6	1	i	2.3	1	10	0.3	0.64	4
Cc1ccc(NC(=O)CSc2nnc(CCCCCNC(=O)OC(C)(C)C)o2)c(C)c1	-2.2	nt	i	2.8	-23	-29	-2.3	0.67	-10
CC1CCCN(CCCNC(=O)CN2C(=O)COc3ccc(S(=O)(=O)N4CCOCC4)cc32)C1 (configuration not stated)	1.1	1	i	-1.6	1	2	-1.9	0.64	3
CCc1ccccc1NC(=O)C1CCCN(c2ncnc3onc(-c4ccc(F)cc4)c23)C1 (configuration not stated)	-1.8	-5	i	0.1	12	17	1.9	0.72	-3
O=C(O)c1cccc(NS(=O)(=O)c2ccc3c4c(cccc24)C(=O)N3)c1	-6.1	-36	i	3.3	3	12	1.4	0.7	9

An excerpt of these results, bar-delimited:
SMILES | HNF4A DNA FP | ALR inh | FGF22 binding | UCH37 inh | rRNA inh HTS | rRNA inh HTS OD600 | rRNA inh HTS RFP | Ecoli growth | B2AR ag
COCCNC(=O)c1c(N)n(/N=C/c2ccc(F)cc2)c2nc3ccccc3nc12 | -0.1 | -3 | i | nt | 18 | 18 | 0.4 | nt | 10
CCc1ccc(C2CC3C(CN2S(=O)(=O)c2ccc(C)cc2)[C@@H](O)C[C@@H](c2ccc(CC)cc2)N3S(=O)(=O)c2ccc(C)cc2)cc1 (some centres not stated) | -2.0 | nt | i | nt | -1 | -23 | -5.3 | nt | nt
CC(C)C(=O)Nc1cccc(NC(=S)NC(=O)C(c2ccccc2)c2ccccc2)c1 | -8.1 | -13 | nt | 2.9 | nt | nt | nt | 0.7 | -10
C[n+]1cc(-c2ccccc2)n2c1CCCCC2 | -1.4 | -5 | nt | 2.5 | nt | nt | nt | 0.72 | -1
O=c1cn[nH]c2ccc(Br)cc12 | -1.2 | nt | i | nt | -2 | 10 | 26 | nt | -5

Remaining list, next part
SMILES	HNF4A DNA FP	ALR inh	FGF22 binding	UCH37 inh	rRNA inh HTS	rRNA inh HTS OD600	rRNA inh HTS RFP	Ecoli growth	B2AR ag
Cc1ccc(CN2CC(C(=O)NC(c3nc4ccccc4[nH]3)C(C)C)CC2=O)cc1 (configuration not stated)	3.6	-4	i	-2.1	nt	nt	nt	0.7	0
Clc1cccc(Oc2cnns2)c1Cl	-2.6	nt	nt	3.2	nt	nt	nt	0.74	0
CCOc1ccc(NC(=O)C2CCN(S(=O)(=O)c3ccc4c(c3)CC(C)N4C(C)=O)CC2)cc1 (configuration not stated)	0.6	1	i	3.4	11	5	-7.2	0.71	5
NNC(=S)NC1CCCCCCCCCCC1	1.6	1	i	2.9	-25	-17	1.5	0.63	11
CC(=O)Nc1ccc(N/C=C(\C#N)S(=O)(=O)c2ccc(Cl)cc2)cc1	0.1	-1	i	-27	2	6	2.5	0.69	-8
Cc1cn(CC(=O)NCC(C)c2ccccc2)c(=O)[nH]c1=O (configuration not stated)	-0.6	nt	i	nt	8	16	1.2	nt	-3
COc1ccc(-c2nnc3sc(COc4ccccc4)nn23)cc1	2.6	-6	nt	1.9	nt	nt	nt	0.71	2
Brc1ccc(-c2nc(N/N=C/c3cccnc3)c3ccccc3n2)cc1	2.4	2	nt	nt	nt	nt	nt	nt	12
CSc1nc(=O)[nH]nc1Sc1ccccc1	-0.6	nt	i	nt	-24	-16	-4.1	nt	nt
CC(=O)Nc1ccc(NC(=O)C2CC(=O)N(c3ccc(Cl)cc3)C2)cc1 (configuration not stated)	1.4	-4	i	1.7	4	40	-2.7	0.72	-1
Cn1cnc(Sc2ncnc3nc[nH]c23)c1[N+](=O)[O-]	2.7	5	i	nt	-9	-9	5.9	nt	-11
COc1ccccc1/C=C/C(=O)OCC(=O)NC1CCCCCCC1	-2.0	48	i	-16	nt	nt	nt	0.7	4
COc1cccc(-c2noc(Cn3nc(C)c([N+](=O)[O-])c3C)n2)c1	-0.6	92*	nt	24*	nt	nt	nt	0.68	0
Cc1ccccc1OCC(=O)OC(C)CN1CCN(C)CC1 (configuration not stated)	2.8	-10	nt	0.5	nt	nt	nt	0.68	-4
O=C(O)CSc1ncnc2nc[nH]c12	3.9	6	nt	1.3	nt	nt	nt	0.71	nt
O=C(c1ccc(Br)cc1)N1CCCC1	0.2	-3	nt	1.7	nt	nt	nt	0.71	3
COc1ccc(CNC(=O)C(=O)c2cn(CC(=O)N3CCOCC3)c3ccccc23)cc1	6.0	-2	i	6.6	1	-3	6.4	0.72	12
COc1ccccc1N1C(=O)CC1(C#N)c1ccc(OCc2ccccc2)cc1 (configuration not stated)	3.5	-4	nt	0.8	nt	nt	nt	0.74	-7
O=C(CCN1C(=O)c2ccccc2C1=O)NCc1ccncc1	-2.1	-4	nt	3.5	nt	nt	nt	0.69	6
O=C(NCCCc1ccc(F)cc1)C1CCC(=O)N(CCCN2CCCC2=O)C1 (configuration not stated)	-0.6	1	i	3.5	7	11	0.1	0.7	-5
COc1ccc(S(=O)(=O)Nc2ccccc2C(=O)N2CCOCC2)cc1Br	-0.4	-4	i	-0.1	4	0	0.8	0.69	-1
